H5N1 antiviral: MDCK cell protection from H5N1 avian flu; inhibition, % at 50 µM; cytopathic effect, luminescence, 72 h; stronger effect = higher value; no value below 0 was filed and about half of the inactive calls have no number; reference of the scale not given here; hit rate 0.07% among 96,000; AID 740; in the data active = inhibition above about 25%
* = called active by the depositor; i = inactive. An excerpt, so the mix of outcomes need not match the whole.

SMILES | H5N1 antiviral
COCCCNC(=O)CCc1nc(-c2ccccc2)no1 | i
O=C(OCC(=O)N1CCN(C(=O)c2ccco2)CC1)c1sc2ccccc2c1Cl | i
COc1ccc(NC(=O)C(CCS(C)(=O)=O)NC(C)=O)cc1 (stereo not drawn) | i
Cc1ccccc1Oc1ccc(-c2nc(N)nc(N)n2)cc1 | 0.1
O=C(O)CCCC(=O)Nc1nc(-c2ccccc2)cs1 | 0.2
CCCCCCCCCC(=O)N/N=C/c1ccc(C)s1 | 0.8
CCOC(=O)C1=C(C)NC2=C(C(=O)CC(C)(C)C2)C1c1cccc(C)n1 (stereo not drawn) | i
Cc1cc(NC(=O)CSc2cn(CCNC(=O)c3ccc(F)cc3)c3ccccc23)no1 | i
O=C(Nc1ccccc1C(=O)NCCc1ccccc1)c1ccco1 | i
CNC(=O)COc1ncnc2sc(C)c(C)c12 | i
OC(C#Cc1ccccn1)c1cccs1 (stereo not drawn) | 0.5
Fc1ccc(C2CC(c3ccco3)=NN2c2ccccc2)cc1 (stereo not drawn) | i
CCN=C1SC(CC(=O)Nc2ccccc2)C(=O)N1CC (stereo not drawn) | i
O=c1nc(-c2ccccc2)cn[nH]1 | 0.6
Oc1ccc2oc3c(c2c1)CCCC3 | i
O=C(c1ccc(Cl)cc1)C1C2C(=O)N(c3ccccc3)C(=O)C2C2CCCN21 (stereo not drawn) | i
O=C(O)CCSc1nnc(-c2ccc3c(c2)OCO3)o1 | i
CC(=O)OC(C(=O)N1CCN(c2ccccc2F)CC1)c1ccccc1 (stereo not drawn) | i
CCc1nnc(NC(=O)c2cc(S(=O)(=O)N3CCN(c4ccccc4)CC3)ccc2Cl)s1 | 0.1
O=C(O)C1C2C=CC3(CN(C4CCCC4)C(=O)C13)O2 (stereo not drawn) | 0.3
Cn1cc(CCC(=O)N2CCC3(CC2)OCCO3)c2ccccc21 | i
CN(C)CCCNC(=O)c1cc2c3ccccc3n(C)c2s1 | i
CC(C)N(C(=O)C(=O)c1cccn1-c1ccccc1C#N)C(C)C | i
O=C(COC(=O)CNC(=O)c1ccco1)Nc1ccc(Cl)cn1 | 0.1
COC(=O)C1CSC(C(=O)OC)N1C(=O)Nc1c(C)cccc1C (stereo not drawn) | i
S=c1nccc(-c2cc(Cl)sc2Cl)[nH]1 | i
Cc1noc2ncnc(Oc3ccc4ccccc4c3)c12 | i
CCCNc1nc2c(c(=O)n(C)c(=O)n2C)n1Cc1ccc(F)cc1 | 4.6
Cc1nc2c(c(C)nn2-c2ccccc2)c(C)c1Cl | i
COC(=O)c1ccc(OCC(O)CN(CCO)CCO)cc1 (stereo not drawn) | i
Cc1c(C(=O)NCc2ccc3c(c2)OCO3)oc2ccc(S(=O)(=O)N3CCCC3)cc12 | 0.5
CCCCOc1ccccc1NC(=O)c1ccc(=O)[nH]c1 | i
Cc1cc(C)nc(N2CCC(C(=O)Nc3ccc(Oc4ccccc4)cc3)CC2)n1 | i
O=[N+]([O-])c1ccc(N2CCCC2)cc1N1CCCC1 | 1.5
CCC(Cc1ccccc1)NC(=O)CN(C)S(=O)(=O)c1ccc2c(c1)c(=O)n(C)c(=O)n2C (stereo not drawn) | 2.0
CC1CCN(S(=O)(=O)c2ccc(NC(=O)Cn3nnc(-c4ccccc4)n3)cc2)CC1 | 1.7
Cn1cccc1Cc1nnc(SCC(N)=O)n1-c1ccc(F)cc1 | 1.8
Cc1ccc(NC(=O)CS(=O)CC(=O)Nc2ccc3c(c2)OCO3)cc1Cl (stereo not drawn) | i
CN1CCN(S(=O)(=O)c2ccc(Sc3nc4ccccc4[nH]3)c3nsnc23)CC1 | 0.3
C=CCn1c(COc2ccc(CC)cc2)nnc1SCC(=O)N(C)C1CCS(=O)(=O)C1 (stereo not drawn) | i
O=S(=O)(c1ccc(F)cc1)N1CCC(N2CCCC2)CC1 | 0.4
COC(=O)CNC(=O)C1CCCN1C(=O)CNC(=O)OC(C)(C)C (stereo not drawn) | 0.1
O=C1CC(N2CCN(c3ccc(O)cc3)CC2)C(=O)N1Cc1cccs1 (stereo not drawn) | i
COc1ccc(N2CCN(C(c3ccccc3OC)c3nnnn3Cc3ccco3)CC2)cc1 (stereo not drawn) | 0.2
Cc1ccsc1-c1nc(CSCC(=O)NCCN2CCCC2)c(C)o1 | i
CC(C)NC(=O)C1CCCN(S(=O)(=O)c2cccs2)C1 (stereo not drawn) | i
CCn1cc(Br)c(C(=O)Nc2ccc(Cl)cc2Cl)n1 | i
COc1cc(NC(=O)c2ccco2)c(C(=O)OCC(=O)Nc2ncc(Cl)cc2Cl)cc1OC | 0.0
CCOC(=O)c1c(C2COc3ccccc3O2)csc1NC(=O)c1ccccc1 (stereo not drawn) | i
CCN(CC)CCCNC(=O)c1[nH]c(C)c(C(=O)NC2CCCCC2)c1C | i
COc1ccc(CNC(=O)C2CCCN2S(=O)(=O)c2ccc(C)cc2)cc1 (stereo not drawn) | i
C/C(=N\N=C(/N)SC1CC(=O)N(c2ccc(Cl)cc2)C1=O)c1cccs1 (stereo not drawn) | i
Cc1ccc(N2CC(C(=O)NCc3cccnc3)CC2=O)cc1 (stereo not drawn) | 0.3
Cc1nc(NC(=O)COc2ccccc2)sc1C(=O)Nc1ccccc1 | i
COc1ccc(-c2nnc(Nc3nc4c(OC)cccc4s3)o2)c(OC)c1 | i
O=C(CSc1nnc(NC(=O)C2CCC2)s1)NC1CC1 | 0.6
CN1/C(=N\O)c2cccc3cccc1c23 | 0.2
ClC(Br)=C(n1cnc2ccccc21)n1cnc2ccccc21 | i
Cc1nc(NC(=O)c2ccco2)sc1-c1csc(Nc2ccc(Cl)cc2Cl)n1 | i
Nc1nc2nonc2nc1N1CCCCC1 | i

Shown field by field: four of the compounds above
CCn1cc(Br)c(C(=O)Nc2ccc(Cl)cc2Cl)n1
  H5N1 antiviral = i
Cc1nc(NC(=O)c2ccco2)sc1-c1csc(Nc2ccc(Cl)cc2Cl)n1
  H5N1 antiviral = i
C/C(=N\N=C(/N)SC1CC(=O)N(c2ccc(Cl)cc2)C1=O)c1cccs1 (stereo not drawn)
  H5N1 antiviral = i
COc1ccc(-c2nnc(Nc3nc4c(OC)cccc4s3)o2)c(OC)c1
  H5N1 antiviral = i

New compounds follow:
SMILES | H5N1 antiviral
CCOC(=O)C(C(=O)Nc1nccs1)C1CCCCC1 (stereo not drawn) | i
COc1ccc(S(=O)(=O)NCC2CCC(C(=O)NCc3ccco3)CC2)cc1 (stereo not drawn) | 0.1
Cc1cccc(N=C2NC(=O)CS2)c1 | 2.3
CCOC(=O)c1c(CN(CC)CC)oc2cc(Br)c(O)cc12 | 0.4
O=C(CNC(=O)c1ccccc1)NCCc1nc2ccccc2[nH]1 | i
Cc1cc(NC(=O)CN2CCOCC2)n(-c2nc3ccccc3s2)n1 | 0.4
CC1CCN(S(=O)(=O)c2ccc3ncn(CC(=O)N(C)Cc4ccccc4)c(=O)c3c2)CC1 | i
Cc1ccc(-c2nc(CSCC(=O)N3CCN(c4ccccn4)CC3)c(C)o2)cc1 | 3.8
COc1ccc(CCNc2ccncn2)cc1OC | i
CCOC(=O)c1ccc(NS(=O)(=O)c2ccc3[nH]c(=O)[nH]c3c2)cc1 | 0.2
Cc1oc(-c2ccccc2)cc1C(=O)Nc1ccccc1 | 0.1
Oc1ccc(/C=N/NP(=S)(c2ccccc2)c2ccccc2)cc1O | i
O=C(C1CCCN(S(=O)(=O)c2cccc3nonc23)C1)N1CCN(c2cccc(Cl)c2)CC1 (stereo not drawn) | i
C=CCNc1nc(Cl)nc(Nc2ccc(OC)cc2)n1 | 1.9
CC1CCN(CCNC(=O)CCS(=O)(=O)c2ccc(Br)cc2)CC1 | 0.2
O=S(=O)(c1ccccc1)N(CC(O)CN1CCCCC1)c1ccccc1 (stereo not drawn) | i
O=C(O)C(c1ccccc1)N1CCCC1 (stereo not drawn) | i
Cn1c2ccccc2c(=O)c2c(=O)n(C3CCCCC3)c(-c3cccs3)nc21 | 47*
Clc1ccc2oc(-c3cccnc3NCc3ccccc3)nc2c1 | 0.4
COC(=O)c1sc(S(=O)(=O)N2CCN(c3ccccc3)CC2)c(C(=O)OC)c1C | 1.7
COc1cccc2cc(-c3nnc(SCC(=O)Nc4nc(C)cs4)n3C)oc12 | 2.9
CN(C)C(=O)C1OC(C)(C)OC1C(=O)N(C)C (stereo not drawn) | i
Cc1cc(NC(=O)COC(=O)c2ccc(S(=O)(=O)N3CCCc4ccccc43)cc2)no1 | i
Cc1nn(-c2ccccc2C(=O)O)c(=O)c2ccccc12 | 1.5
COc1ccc(CCNC(=O)c2cc(-c3ccc(C)cc3O)n[nH]2)cc1OC | i
CCOC(=O)Cn1c(C(=O)OCC)cc2sccc21 | i
Cc1nc2ccc(S(=O)(=O)NC(C(=O)NCc3ccco3)C(C)C)cc2s1 (stereo not drawn) | 1.1
COC(=O)c1ccc(Cn2c(O)c(N=O)c3ccccc32)o1 | 4.0
CC(=O)c1cn(CCCCCCCCCCn2cc(C(C)=O)c(=O)[nH]c2=O)c(=O)[nH]c1=O | i
COc1ccc(CC(=O)NC(c2ccccc2)c2ccccc2)cc1S(=O)(=O)N1CCOCC1 | i

Quoted at random: 2 entries already listed.
SMILES | H5N1 antiviral
Cn1c2ccccc2c(=O)c2c(=O)n(C3CCCCC3)c(-c3cccs3)nc21 | 47*
COC(=O)c1sc(S(=O)(=O)N2CCN(c3ccccc3)CC2)c(C(=O)OC)c1C | 1.7

(further entries)
SMILES | H5N1 antiviral
Cc1nc2ccccn2c1/C(O)=C1\C(=O)C(=O)N(CCN2CCOCC2)C1c1ccncc1 (stereo not drawn) | i
CCOc1ccc(C(CCc2ccccc2)NC(=O)c2ccccc2F)cc1OCC (stereo not drawn) | 0.5
O=C(CSc1nc(-c2cccs2)cc(C(F)(F)F)n1)NCc1ccccc1 | i
CCCCCc1c(C)nc(SCC(=O)O)[nH]c1=O | 0.0
CCCC(=O)NC(=S)Nc1ccccc1F | i
CC(OC(=O)C1CCN(S(=O)(=O)c2ccccc2)CC1)C(=O)Nc1ncc(Cl)cc1Cl (stereo not drawn) | i
CCCCOC(=O)c1[nH]c2c(c1C)C(=O)CC(c1cc(OC)c(OC)c(OC)c1)C2 (stereo not drawn) | i
CCOC(=O)c1oc2cc(O)cc(C)c2c(=O)c1-c1cscn1 | 0.4
CCOC(=O)Cc1csc(NC(=O)CCNS(=O)(=O)c2ccc3c(c2)CCC(=O)N3)n1 | i
N#CNC1=NCN(Cc2ccccc2)CN1 | i
COc1cccc(C(=O)N2N=C(c3cccc(OC)c3)CC2(O)C(F)(F)F)c1 (stereo not drawn) | i
CCOC(=O)N1CCN(C(=O)CCNS(=O)(=O)c2cc(Br)cnc2N)CC1 | i
O=C(Nc1ccc(S(=O)(=O)N2CCCCC2)cc1)c1ccccc1Cl | i
CCCC(=O)N(C)c1nnc(-c2ccc(OC)cc2)s1 | i
COc1ccc2oc(C(F)(F)C(F)(F)F)cc(=O)c2c1 | i
O=C(CN(Cc1ccc2c(c1)OCO2)C(=O)c1cnsn1)NC1CCCC1 | i
O=C(CCC(=O)Nc1nnc(C2CCCCC2)s1)NCc1cccs1 | i
CCc1ccc2[nH]c(=O)c(C(c3nnnn3CCOC)N3CCN(c4ccccc4F)CC3)cc2c1 (stereo not drawn) | 0.1
O=C(Nc1nnc(-c2cccs2)o1)c1ccco1 | 3.1
COc1ccccc1OCC(=O)NNC(=S)NC(=O)c1ccco1 | i
COCCn1nnnc1C(c1ccc(OC)cc1OC)N1CCN(c2ccccc2)CC1 (stereo not drawn) | i
COc1ccc(N=Cc2c[nH][nH]c2=O)cc1 | i
O=[N+]([O-])c1ccc(N2CCCCC2)c(Cl)c1N1CCCCC1 | 0.7
CC(C)C(=O)Nc1cccc(C(=O)Nc2nnc(C(C)(C)C)s2)c1 | i
COc1ccccc1CNC(=O)C(CCSC)NS(=O)(=O)c1ccc2c(c1)oc(=O)n2C (stereo not drawn) | i
CC(C)c1ccccc1OCC(=O)NCC(c1cccs1)N1CCOCC1 (stereo not drawn) | 1.0
Cc1cc(C)nc(SCC(=O)c2ccc3c(c2)OCCO3)n1 | i
COc1ccc(CC(NC(C)=O)C(=O)NC2CCN(c3nc(C)cc(C)c3C#N)CC2)c(OC)c1 (stereo not drawn) | i
CCC(=O)N/C(N)=N/c1nc(C)c2cc(OC)ccc2n1 | 8.9
O=C(CCCCCNS(=O)(=O)c1ccc(Br)cc1)NCCN1CCOCC1 | 0.2

Ordered by count of non-hydrogen atoms (falling): part of the list above
SMILES | H5N1 antiviral
CCc1ccc2[nH]c(=O)c(C(c3nnnn3CCOC)N3CCN(c4ccccc4F)CC3)cc2c1 (stereo not drawn) | 0.1
COc1ccccc1CNC(=O)C(CCSC)NS(=O)(=O)c1ccc2c(c1)oc(=O)n2C (stereo not drawn) | i
CC(C)c1ccccc1OCC(=O)NCC(c1cccs1)N1CCOCC1 (stereo not drawn) | 1.0
CC(C)C(=O)Nc1cccc(C(=O)Nc2nnc(C(C)(C)C)s2)c1 | i
O=[N+]([O-])c1ccc(N2CCCCC2)c(Cl)c1N1CCCCC1 | 0.7
CCC(=O)N/C(N)=N/c1nc(C)c2cc(OC)ccc2n1 | 8.9

More compounds
SMILES | H5N1 antiviral
COc1ccc(/C(C)=N/NC(=O)c2ccc(N(C)C)cc2)cc1 | i
COc1cccc(NC(=O)Cn2c(=O)oc3ccccc32)c1 | i
CC1(C)CC(CC(=O)O)(c2ccccc2)CCO1 (stereo not drawn) | i
CC1(C)CC(=O)C=C(Nc2ccccc2F)C1 | i
Cc1ccc(S(=O)(=O)Nc2ccc(Br)cc2/C=N/n2cnnc2)cc1 | i
Cc1cc(C)nc(SCC(=O)N/N=C/c2cccn2-c2cccc(C(F)(F)F)c2)n1 | i
Cc1ccccc1OC1C(=O)N(Cc2ccc3c(c2)OCO3)C1c1sccc1C (stereo not drawn) | 3.1
CCOP(=O)(c1ccc(N(C)C)cc1)C(O)c1ccccc1 (stereo not drawn) | i
CCC(C)Sc1nnc(CSc2nc3nc(C)cc(C)n3n2)o1 (stereo not drawn) | 2.4

From PubChem BioAssay
